MARV entry inh: inhibitors of Marburg virus binding or cell entry | Marburg virus pseudotyped entry inhibition, cell reporter; control for the full effect not named in the record; about a third of the inactives were read at about 46 µM | Potency, µM (doses to about 37.8 µM), for inactives: at the highest dose activity change, negative = inhibition, most hits filed as inhibitors | hit rate 1.8% among 300,000 | AID 540276; active = well fitted inhibition curve with a large enough effect; inconclusive = small, poorly fitted or top-dose-only effect, or effect the other way; inactive = flat fitted curve, though single readings scatter; tested in HEK293 cells; about a fifth of its hits are not listed in these tables; further: on the % scale 0 is the no-effect control and ±100 the full control effect; luciferase read-out
Cruzain inh Det: blocks cruzain activity in presence of Triton detergent. P25779. purified cruzain, Z-FR-AMC fluorescence, 0.01% Triton. Potency, µM, without a hit: max response, negative = inhibition, usual class: inhibitors. hit rate 0.43% among 200,000; active means well fitted curve in the direction sought with a large enough effect; inconclusive means small, poorly fitted or top-dose-only effect, or another doubt; inactive means no such curve, though single readings can be large; an effect the other way counts as inactive or inconclusive;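 further: plate controls were neutral wells for no effect and buffer without enzyme for full effect; nearly all actives have a fitted effect of over 40% in size; top concentration of the series not given in the record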
Target sequence (P25779 123-467 limits assumed): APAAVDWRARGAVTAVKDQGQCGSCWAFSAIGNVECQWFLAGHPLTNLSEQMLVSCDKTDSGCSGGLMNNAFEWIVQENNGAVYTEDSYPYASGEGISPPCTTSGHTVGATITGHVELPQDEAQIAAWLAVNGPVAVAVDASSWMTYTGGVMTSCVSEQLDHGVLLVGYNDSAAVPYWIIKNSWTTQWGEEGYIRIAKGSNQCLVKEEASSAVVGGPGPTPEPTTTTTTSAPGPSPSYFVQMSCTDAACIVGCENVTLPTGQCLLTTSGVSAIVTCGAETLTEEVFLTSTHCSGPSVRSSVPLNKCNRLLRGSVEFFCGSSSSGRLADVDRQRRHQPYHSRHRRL
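Enzyme 1.5 nM, Z-FR-AMC 2 uM, NaOAc 100 mM pH 5.5, DTT 5 mM, Triton X-100 0.01%; 15 min RT compound preincubation; kinetic ex360/em450, 60 s delta.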
LASV entry inh: Lassa virus entry inhibition; Potency, µM (doses to about 37.9 µM), for inactives: at the top dose activity change, negative = inhibition, hits mostly inhibitors; Lassa virus pseudotype entry inhibition, cell reporter; control for the full effect not named in the record; AID 540256; hit rate 1.2% among 300,000; active means well fitted inhibition curve with a large enough effect; inconclusive means small, poorly fitted or top-dose-only effect, or effect the other way; inactive means flat fitted curve, though single readings scatter; tested in HEK293 cells; further: on the % scale 0 is the no-effect control and ±100 the full control effect; nearly all actives have a fitted effect of over 50% in size; luciferase read-out
NS1 function inh: blocks influenza NS1 protein function; hit rate 0.4% among 270,000; S. cerevisiae slowed by influenza A NS1, growth recovery by OD600; Potency, µM (titrated, usually from 46.1 µM), inactives show top-dose activity, positive = more growth; AID 2326; further: actives are rising curves; nearly all actives have a fitted effect of over 50% in size
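Compounds were scored for reversing the slow growth caused by influenza A NS1 in S. cerevisiae, measured by optical density at 600 nm. Assay medium contained 2% galactose at pH 6.0; NS1-free yeast of the same strain were the positive control.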
2A StopGo: lowers the luciferase signal of an FMDV 2A StopGo reporter; human cells with a luciferase reporter of 2A StopGo recoding; control for the full effect not named in the record; Potency, µM (top dose mostly 57.9 µM), for the others: at the highest dose signal change, negative = less light; hit rate 1.2% among 410,000; active = well fitted falling curve with a large enough effect; inconclusive = small, poorly fitted or top-dose-only effect; inactive = no such curve, though single readings can be large or run the other way; tested in HEK293T cells; further: on the % scale 0 is the no-effect control and ±100 the full control effect; nearly all actives have a fitted effect of over 45% in size; luciferase light after 4 h
Cruzain inh noDet: blocks cruzain activity in detergent-free assay; Potency, µM, for inactives: max response, negative = inhibition, hits mostly inhibitors; hit rate 2.3% among 200,000; AID 1476; P25779; purified cruzain, Z-FR-AMC fluorescence, no detergent; active means well fitted curve in the direction sought with a large enough effect; inconclusive means small, poorly fitted or top-dose-only effect, or another doubt; inactive means no such curve, though single readings can be large; an effect the other way counts as inactive or inconclusive;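 further: plate controls were enzyme without inhibitor for no effect and buffer without enzyme for full effect; nearly all actives have a fitted effect of over 40% in size; top concentration of the series not given in the record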
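Purified cruzain at 1.5 nM, pre-incubated 15 min with compound at room temperature in 100 mM sodium acetate pH 5.5, 5 mM DTT, 0.00005% Triton X-100. Reaction started with 2 uM Z-FR-AMC; AMC fluorescence increase over 60 s gives rate.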
SARS PLP yeast: SARS-CoV PLP inhibition in yeast. S. cerevisiae expressing SARS-CoV PLpro, growth rescue; control for the full effect not named in the record. Potency, µM (series often up to 32.9 µM), for inactives: at the highest dose activity, positive = growth rescue. hit rate 0.19% among 330,000; further: 0% is about no effect; nearly all actives have a fitted effect of over 55% in size; growth read by luminescence after 48 h
RE007 growth inh: less growth of the S. pombe RE007 Vpr strain | hit rate 0.21% among 360,000 | S. pombe RE007 Vpr strain, BacTiter-Glo ATP luminescence, 24 h; control for the full effect not named in the record | Potency, µM (top dose mostly 92.2 µM), for the others: at the top dose activity change, negative = less growth; active = well fitted falling curve with a large enough effect; inconclusive = small, poorly fitted or top-dose-only effect; inactive = no such curve, though single readings can be large or run the other way;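 further: on the % scale 0 is the no-effect control and ±100 the full control effect; nearly all actives have a fitted effect of over 50% in size; the assay follows cell death caused by Vpr and the record does not say whether a fall means rescue or toxicity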
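Fission yeast strain RE007, carrying one chromosomally integrated HIV-1 vpr copy, was seeded at OD 0.01 in PMG+AL medium with 23 nL pinned compound. After 24 h at 30 °C and 99% humidity, viability was read by BacTiter-Glo luminescence.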
The depositor's hits bear a star; & = joins results of further samples; [ ] = another dose, or the depositor's remark. Unless noted, the call rests on the fitted dose curve; in most records, active means well fitted rising curve with a large enough effect; inconclusive means small, poorly fitted or top-dose-only effect; inactive means no such curve, though single readings can be large or run the other way. Potency means the concentration at half of the fitted maximal effect.

How did CCCN(C(=O)c1cc(S(=O)(=O)N(C)c2ccc(OCC)cc2)ccc1C)C1CCS(=O)(=O)C1 (stereo not drawn) do in these assays?
MARV entry inh: -10.4%; LASV entry inh: -1.2%; 2A StopGo: 58.1%[activator]; SARS PLP yeast: 0.8%; RE007 growth inh: -23.4%

How did N#Cc1ccc(C23CC4(C2)[C@H](CN(P(=O)(c2ccccc2)c2ccccc2)[C@@H]4c2ccccc2)C3c2ccc(Cl)nc2)cc1 (stereo partly drawn) do in these assays?
Cruzain inh Det: 1.2%; NS1 function inh: inconclusive; 2A StopGo: inconclusive; Cruzain inh noDet: -12.0%; SARS PLP yeast: 2.3%; RE007 growth inh: 1.7%

Results for Cc1ccc(-c2cc(C(=O)Nc3cc(C)on3)c3ccccc3n2)cc1 ?
MARV entry inh: 0.5%; Cruzain inh Det: -6.7%; LASV entry inh: 16.8%; NS1 function inh: 10.8%; 2A StopGo: -4.4%; Cruzain inh noDet: -19.5%; SARS PLP yeast: 13.1%; RE007 growth inh: 5.4%

Results for O=[N+]([O-])c1cccc(-n2cccc2/C=N/Nc2nc(N3CCCCC3)nc(N3CCCCC3)n2)c1 ?
MARV entry inh: -22.6%[46.1 µM]; LASV entry inh: -12.3%; 2A StopGo: -11.2%; SARS PLP yeast: 1.2%; RE007 growth inh: 2.2%

Results for CCCCOc1ccc(S(=O)(=O)Nc2cc(OC)ccc2OC)cc1 ?
MARV entry inh: inconclusive; Cruzain inh Det: -2.5%; LASV entry inh: -26.7%; NS1 function inh: -47.3%; Cruzain inh noDet: 0.8%; RE007 growth inh: 0.7%

How did CC(/C=C1\SC(=O)N(CC(=O)Nc2cccc(O)c2)C1=O)=C\c1ccccc1 do in these assays?
MARV entry inh: 11.7%; Cruzain inh Det: -3.7%; LASV entry inh: inconclusive; NS1 function inh: 11.9%; 2A StopGo: -12.6%; Cruzain inh noDet: 7.9%; SARS PLP yeast: -3.6%; RE007 growth inh: 27.7%

What do the screens show for `CC(C)(C)c1ccc(S(=O)(=O)NCCOCC(F)(F)C(F)F)cc1`?
MARV entry inh: -25.2%; Cruzain inh Det: -6.3%; LASV entry inh: -3.1%; NS1 function inh: -29.0%; 2A StopGo: 12.1%; Cruzain inh noDet: 13.3%; SARS PLP yeast: -9.2%; RE007 growth inh: -3.9%

How did NS(=O)(=O)OCCCc1ccc(C(F)(F)F)cc1 do in these assays?
NS1 function inh: -19.5%; 2A StopGo: -22.5%; SARS PLP yeast: -3.1%; RE007 growth inh: 4.2%

What do the screens show for `O=C(CSc1nc2ccccc2[nH]1)c1ccc(Cl)s1`?
MARV entry inh: 1.0%; Cruzain inh Det: -4.2%; LASV entry inh: 25.1%; NS1 function inh: 3.0%; 2A StopGo: 81.6%[activator]; Cruzain inh noDet: 10µM*; SARS PLP yeast: -3.8%; RE007 growth inh: -16.4%

How did O=c1c(-c2ccccc2)nnc2sc(COc3ccc(Br)cc3)nn12 do in these assays?
MARV entry inh: 2.1%[46.1 µM]; LASV entry inh: inconclusive; NS1 function inh: 1.6%; 2A StopGo: 2.3%; SARS PLP yeast: -1.9%; RE007 growth inh: 4.4%

How did COc1ccc(C)cc1NC(=O)CC(=O)Nc1ccc2nc3n(c(=O)c2c1)CCCCC3 do in these assays?
MARV entry inh: 11.7%[46.1 µM]; Cruzain inh Det: -2.1%; LASV entry inh: 9.7%[46.1 µM]; 2A StopGo: -26.9%; Cruzain inh noDet: inconclusive

Results for CC(C)Oc1ccc(C(CC(=O)O)Cc2ccccc2)cc1 (stereo not drawn) ?
MARV entry inh: 29.1%[46.1 µM]; LASV entry inh: 8.4%[46.1 µM]; NS1 function inh: 3.6%; 2A StopGo: -5.7%; SARS PLP yeast: 0.8%; RE007 growth inh: 11.3%

Results for CN1C(=O)C2(C(C#N)=C(N)N(c3cc(Cl)cc(Cl)c3)C3=C2C(=O)CCC3)c2ccccc21 (stereo not drawn) ?
MARV entry inh: -20.3%; Cruzain inh Det: -2.6%; LASV entry inh: -4.9%; NS1 function inh: -4.5%; 2A StopGo: -28.0%; Cruzain inh noDet: -8.1%; SARS PLP yeast: 5.3%; RE007 growth inh: -4.4%

What do the screens show for `Cc1nc2ccccc2c(=O)n1C1CCCCCC1`?
MARV entry inh: 1.5%; Cruzain inh Det: -1.6%; LASV entry inh: -1.0%; NS1 function inh: -8.1%; 2A StopGo: inconclusive; Cruzain inh noDet: 10.8%; SARS PLP yeast: 3.5%; RE007 growth inh: 20.6%

Results for Cn1nc(C#N)c(=O)[nH]c1=O ?
MARV entry inh: 15.9%[46.1 µM]; LASV entry inh: 1.5%[46.1 µM]; 2A StopGo: -11.0%; RE007 growth inh: -5.0%

What do the screens show for `Cc1nc(CCNC(=O)Cc2ccc(Cl)cc2)cs1`?
Cruzain inh Det: 7.0%; NS1 function inh: -1.3%; 2A StopGo: -5.8%; Cruzain inh noDet: 16.4%; SARS PLP yeast: 3.2%; RE007 growth inh: -0.3%

Results for CC(C)CCCNc1nc(N2CCOCC2)nc(N2CCOCC2)n1 ?
MARV entry inh: -42.1%; Cruzain inh Det: -2.4%; LASV entry inh: -1.3%; NS1 function inh: -39.4%; 2A StopGo: -20.2%; Cruzain inh noDet: 4.8%; SARS PLP yeast: 1.1%; RE007 growth inh: 1.8%

Results for Nc1ccc2ncccc2c1N ?
MARV entry inh: inconclusive; Cruzain inh Det: inconclusive; LASV entry inh: -20.5%&-2.6%; NS1 function inh: 6.3%; 2A StopGo: -7.8%; Cruzain inh noDet: -1.8%; SARS PLP yeast: -10.9%; RE007 growth inh: -13.4%

Results for CCC(COC)NC(=O)CCc1nnc(Cc2cccc(C(F)(F)F)c2)o1 (stereo not drawn) ?
MARV entry inh: inconclusive; LASV entry inh: 14.6%[46.1 µM]; NS1 function inh: 2.7%; 2A StopGo: 16.2%; SARS PLP yeast: -0.4%; RE007 growth inh: -7.8%

What do the screens show for `O=S(=O)(c1ccc(Br)s1)N1CCN(c2cccc(C(F)(F)F)c2)CC1`?
MARV entry inh: inconclusive; Cruzain inh Det: -11.2%; LASV entry inh: -8.8%[46.1 µM]; 2A StopGo: -22.9%; Cruzain inh noDet: -7.2%

Results for CN(C)C(CNc1ncnc2sc3c(c12)CCCCC3)c1ccco1 (stereo not drawn) ?
MARV entry inh: inconclusive; LASV entry inh: -21.4%; 2A StopGo: inconclusive; SARS PLP yeast: -8.1%; RE007 growth inh: -1.4%

How did CCN(CC(=O)Nc1ccccc1OC)C(=O)CSCc1ccc(C)cc1 do in these assays?
MARV entry inh: inconclusive; LASV entry inh: -1.6%; 2A StopGo: 7.6%; SARS PLP yeast: -10.2%; RE007 growth inh: 7.6%

Results for CN1CCC(N(C)CC(=O)Nc2cccc(Oc3ccccc3)c2)CC1 ?
MARV entry inh: inconclusive; Cruzain inh Det: -0.2%; LASV entry inh: 0.3%; NS1 function inh: -7.9%; 2A StopGo: -21.8%; Cruzain inh noDet: -2.0%; SARS PLP yeast: -2.3%; RE007 growth inh: 4.0%

Results for O=C(CSc1nnc(Nc2ccccc2)s1)NCc1ccco1 ?
MARV entry inh: 6.5%; Cruzain inh Det: 0.6%; LASV entry inh: 16.9%; NS1 function inh: -1.1%; 2A StopGo: 14.8%; Cruzain inh noDet: 3.3%; SARS PLP yeast: 1.7%; RE007 growth inh: -8.8%

Results for CC1CC(C)CN(S(=O)(=O)c2ccc(C(=O)NCCCn3ccnc3)cc2)C1 (stereo not drawn) ?
MARV entry inh: 0.1%; Cruzain inh Det: 2.7%; LASV entry inh: -0.8%; NS1 function inh: -9.9%; 2A StopGo: -14.7%; Cruzain inh noDet: 3.9%; SARS PLP yeast: -8.7%; RE007 growth inh: -0.8%

How did O=C(/C=C/c1ccc(-c2ccccc2)o1)c1ccccc1 do in these assays?
MARV entry inh: 16.3%; Cruzain inh Det: -20.7%; LASV entry inh: inconclusive; NS1 function inh: -3.8%; 2A StopGo: 20.7%; Cruzain inh noDet: -9.2%; SARS PLP yeast: 5.4%; RE007 growth inh: -1.1%

Results for CNc1nc2c(c(=O)n(C)c(=O)n2C)n1CCCc1ccccc1 ?
MARV entry inh: inconclusive; LASV entry inh: inconclusive; NS1 function inh: 15.2%; 2A StopGo: 0.0%; SARS PLP yeast: -0.4%; RE007 growth inh: 1.1%

Results for C=CCN1C(=O)C(O)(CC(=O)c2ccc(Cl)cc2)c2ccccc21 (stereo not drawn) ?
MARV entry inh: 3.4%; Cruzain inh Det: -3.0%; LASV entry inh: -17.6%; NS1 function inh: -34.4%; 2A StopGo: -4.6%; Cruzain inh noDet: 12.6µM*; SARS PLP yeast: inconclusive; RE007 growth inh: 0.3%

Results for Cc1ccc(C)n1-c1ccc(C(=O)N/N=C/c2ccncc2)cc1 ?
MARV entry inh: -19.3%[46.1 µM]; 2A StopGo: -7.6%; SARS PLP yeast: -8.6%; RE007 growth inh: inconclusive

How did Nc1nn2c(-c3ccccc3)cc(=O)[nH]c2c1N=Nc1ccc(O)cc1 do in these assays?
MARV entry inh: inconclusive; LASV entry inh: inconclusive; NS1 function inh: 9.2%; 2A StopGo: -4.5%; SARS PLP yeast: 0.7%; RE007 growth inh: -1.3%

How did CCOC(=O)N1CCN(C(=O)c2csc3c2CCCCC3)CC1 do in these assays?
MARV entry inh: -6.0%; Cruzain inh Det: 6.0%; LASV entry inh: -16.9%; NS1 function inh: -9.6%; Cruzain inh noDet: -0.4%; SARS PLP yeast: -0.8%; RE007 growth inh: -1.3%

What do the screens show for `CCc1ccc(-n2nc(C)c3c(C(=O)Nc4cc(OC)cc(OC)c4)cc(C)nc32)cc1`?
Cruzain inh Det: -5.7%; LASV entry inh: inconclusive; 2A StopGo: -18.9%; Cruzain inh noDet: -27.4%

Results for CC(C)c1nnc(NC(=O)CCC(=O)NCc2ccccc2Cl)s1 ?
MARV entry inh: 6.6%[46.1 µM]; LASV entry inh: -8.0%[46.1 µM]; NS1 function inh: 4.8%; 2A StopGo: -5.7%; SARS PLP yeast: 4.8%; RE007 growth inh: -2.7%

How did CCOc1nc(C#N)nc(N2CCCCC2)n1 do in these assays?
MARV entry inh: inconclusive; Cruzain inh Det: 0.562µM*; LASV entry inh: -25.4%; NS1 function inh: -41.1%; 2A StopGo: inconclusive; Cruzain inh noDet: 0.501µM*; SARS PLP yeast: -4.2%; RE007 growth inh: -6.1%

How did CC(=O)NCCc1csc(-c2ccccc2)n1 do in these assays?
MARV entry inh: 0.1%; Cruzain inh Det: 1.8%; LASV entry inh: inconclusive; NS1 function inh: -3.5%; Cruzain inh noDet: -4.4%; SARS PLP yeast: 4.7%; RE007 growth inh: 4.1%

Assay outcomes (PubChem)
